# AmpC nodet inh = blocks E. coli AmpC beta-lactamase in absence of detergent. AmpC nitrocefin hydrolysis, absorbance 480 nm, no detergent; potencies from a single point are estimates. Potency, µM (doses to about 28.7 µM), without a hit: at the highest dose activity change, negative = inhibition. 71,000 tested, 1.8% active; active = falling curve, for most hits resting on a single point; inconclusive = weak or doubtful change; inactive = flat or rising curve; note: % of control where 0% means no effect; about half of the hits show no inhibition at the top dose; a quarter of the inactives give rising signals
# Target sequence (P00811 whole entry, looked up): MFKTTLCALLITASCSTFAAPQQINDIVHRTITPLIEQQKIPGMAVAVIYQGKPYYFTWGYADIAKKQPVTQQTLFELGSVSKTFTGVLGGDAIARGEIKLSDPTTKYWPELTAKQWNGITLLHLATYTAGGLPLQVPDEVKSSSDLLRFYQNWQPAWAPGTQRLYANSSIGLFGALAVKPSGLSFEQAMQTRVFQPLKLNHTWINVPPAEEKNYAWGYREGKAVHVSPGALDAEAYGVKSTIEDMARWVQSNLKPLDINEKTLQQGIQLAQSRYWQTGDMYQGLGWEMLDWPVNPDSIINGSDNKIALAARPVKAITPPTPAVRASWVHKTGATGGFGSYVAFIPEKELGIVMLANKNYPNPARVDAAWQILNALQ
#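 Enzyme, pH 7.0 phosphate. Compound titrations were pre-incubated with AmpC for 15 min at room temperature before nitrocefin (stock 800 uM) addition; product formation was recorded at 480 nm every 20 s for 4 min.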
# * = called active by the depositor; & = joins results of further samples; [ ] = another dose, or the depositor's remark. Potency is the fitted concentration of half-maximal effect. An excerpt (hit frequency here may not be typical).
Compound	AmpC nodet inh
Cc1ccc(-c2ccc(=O)n(CC(=O)NCCN(C)C)n2)cc1	-0.5%
CCCCOC(=O)Nc1ccc(C(=O)OC)cc1	-3.4%
COc1cc(C(=O)NCc2ccc3c(c2)OCO3)ccc1OCc1c(C)noc1C	19.6%
CC(C)(C)OC(=O)NCC(=O)N1CCC(C(=O)O)CC1	-8.8%
CCN(CCCNC(=O)CC1Oc2ccc(C)cc2NC1=O)Cc1ccccc1 (centres undefined)	34.5%
Cc1onc(-c2ccccc2Cl)c1C(=O)NCc1ccc(N2CCCC2=O)cc1	22.6%
COC(=O)Cn1c(C)nc2c(sc3nc(C)cc(C)c32)c1=O	54.8%
COc1ccc2cc3c(N)nn(C(=O)Cc4ccccc4OC)c3nc2c1	73.4%
O=C(CSc1ncn[nH]1)c1ccco1	-7.9%
Cc1ccc(-c2nnn(Cc3nc4ccccc4s3)n2)cc1	9.2%
COc1cccc(C(=O)N(CN2CCCC2=O)c2cc(C)on2)c1	5.7%
COc1cc(C(=O)NCC(c2cccnc2)N2CCN(c3ccccc3)CC2)cc(OC)c1OC (centres undefined)	108.2%
O=C(CCc1ccccc1)Nc1nc2n(n1)C(c1ccc(Cl)cc1)CC(=O)N2 (centres undefined)	6.9%
CCOc1ccc(N2CC(C(=O)NCCc3ccc(OC)c(OC)c3)CC2=O)cc1 (centres undefined)	33.1%
CCOCc1cc(C2NC(=O)NC(C)=C2C(=O)OCC)ccc1OC (centres undefined)	17.2%

Compound	AmpC nodet inh
Cn1c(-c2nonc2NC(=O)c2ccc(C(C)(C)C)cc2)nc2ccccc21	-4.7%
CCCn1c(NCc2ccco2)nc2ccccc21	2.6%
COc1ccc(C(=O)CSc2nnc(C(CO)NC(=O)c3ccc(OC)cc3)n2C)cc1 (centres undefined)	57.0%
CCOC(=O)c1cnc2sc3c(n2c1=O)CCCC3	24.2%
c1ccc(C[C@@H](Nc2cccnc2)c2ccccc2)cc1	10.5%[5.75 µM]
COc1ccc(C(CC(=O)NC(C)(C)C)n2cccc2)cc1 (centres undefined)	23.2%
COc1ccc(OC)c(CCNC(=O)CS(=O)(=O)Cc2nc(-c3ccccc3C)oc2C)c1	61.7%
Cn1c(=O)c2c(ncn2CC(=O)Nc2nnc(Cc3ccccc3)s2)n(C)c1=O	8.3%
Cn1c(=O)[nH]c(=O)c2c1nc(SCCN1CCOCC1)n2Cc1ccccc1	28.3%
COc1ccccc1C1C2CCCCC2(O)CCN1CC(=O)Nc1ccccc1 (centres undefined)	41.9%
Cc1cc(C)c(S(=O)(=O)N2CCN(CCO)CC2)c(C)c1	42.6%
CCn1c(=O)c2cc(C(=O)Nc3cc(C)on3)sc2c2ccccc21	3.98µM*[single pt active]
COC(=O)c1cn(CC(=O)NCc2cccs2)c2ccccc12	-1.6%
C=CCN1CCc2cc(O)c(O)cc2[C@H](c2ccccc2)C1	-5.0%&-23.9%
O=c1cc(-c2ccccc2)oc2c1ccc1ccccc12	58.6%

Compound	AmpC nodet inh
CCC(C)c1ccc(O)c(NC(=O)c2cccnc2)c1 (centres undefined)	8.4%
COc1ccc(C(=O)N2CCC3(CCN(Cc4cc(C(F)(F)F)cc(C(F)(F)F)c4)CC3)CC2)cc1	114.2%
COc1ccc(-c2ccc(CCC(=O)O)n2NC(=O)c2cccs2)cc1	-5.2%
COc1ccc(C(=O)Nc2cccc(C(C)=O)c2)cc1OC	32.0%
O=C(CSc1nc2ccccc2n1CC(=O)N1CCCC1)N1CCN(C(=O)c2ccco2)CC1	16.3%
COc1ccccc1NC(=O)N(Cc1ccccc1)c1ccccn1	-4.4%
CN1CCc2cc3c(cc2[C@@H]1O)OCO3	6.1%[12.8 µM]
COC(=O)c1ccccc1NC(=O)CSc1nccn1C	1.3%
O=c1c(CCc2ccccc2)nc2cnc(Nc3ccccc3)nc2n1C[C@H]1CCCO1	19.2%
Cc1ccnc(NC(=O)Nc2ccc3c(c2)N(C)C(=O)CS3)c1	3.7%
O=C(COC(=O)c1cncc(Br)c1)NCCC1=CCCCC1	27.4%
Cc1ccc(S(=O)(=O)C(C#N)c2nc3ccccc3nc2OC(C)C)cc1 (centres undefined)	-11.6%
Cc1ccc2c(c1)c1c(n2C)C(C(N)=O)CCC1 (centres undefined)	-5.9%
COc1ccc(C)cc1S(=O)(=O)N(CC(=O)O)c1ccc(F)cc1	1.3%
COc1ccccc1NC(=O)Cc1noc(CSc2cc(C)c3ccccc3n2)n1	6.1%

# Given field by field: 2 of the compounds above
COc1ccc(-c2ccc(CCC(=O)O)n2NC(=O)c2cccs2)cc1
  AmpC nodet inh: -5.2%
COc1ccc(C(=O)Nc2cccc(C(C)=O)c2)cc1OC
  AmpC nodet inh: 32.0%

# Next part.
Compound	AmpC nodet inh
CN1CCc2c(sc3nc(SCC(N)=O)n(-c4ccccc4)c(=O)c23)C1	82.0%
COc1ccc(CCN2C(=O)CC(Nc3ccc(N4CCOCC4)cc3)C2=O)cc1OC (centres undefined)	62.9%
O=C1C2=C(c3ccccc31)[N+](=O)[C@@H]1CCCC[C@@H]1N2[O-]	-5.4%
COc1ccccc1CN(Cc1ccco1)S(=O)(=O)c1ccc(-n2cnnn2)c(OC)c1	44.3%
COc1cc(NC(=O)CN2CCN(S(=O)(=O)c3ccc(C(C)C)cc3)CC2)cc(OC)c1	73.0%
CCOc1ccccc1-c1nc(-c2ccc(NC(=O)c3ccc(Br)o3)cc2)no1	6.9%
NC1=NC(c2ccc(Br)cc2)n2c(nc3ccccc32)N1 (centres undefined)	6.4%
CC(=O)Nc1ccc(NC(=O)Cn2cc3c(n2)CCCC3)cc1	2.0%
O=C(O)CN1C(=O)COc2cc(S(=O)(=O)N3CCCC3)ccc21	1.6%
COc1ccc(Cl)cc1NC(=O)C1CSC(c2ccncc2)=N1 (centres undefined)	20.1%
CCCCC(=O)Nc1ccc(Cl)cn1	-6.6%
Cc1nnc(NC(=O)CSc2nnc(Cc3cccn3C)n2-c2cccc(C)c2C)s1	36.4%
Cc1nc(SCCO)c2oc3ccccc3c2n1	10.7%
COC(=O)c1ccc(NC(=O)CN(C2CCCCC2)S(C)(=O)=O)cc1	98.1%
COC(=O)[C@@H]1C[C@H]1[C@@H](NS(=O)(=O)c1ccc2ccccc2c1)c1ccccc1	3.5%

Compound	AmpC nodet inh
O=C(c1cc2nc(-c3ccccc3)cc(C(F)(F)F)n2n1)N1CCOCC1	39.2%
COc1ccccc1CC(=O)Nc1ccc(-c2nnc(-c3ccco3)o2)cc1	43.0%
Cc1sc2nc(-c3ccco3)oc(=O)c2c1C	1.8%
Cc1cc(O)c(-c2cc(C(=O)Nc3ccc(S(=O)(=O)N4CCOCC4)cc3)[nH]n2)cc1C	50.7%
Cc1cc(C)cc(N(CC(=O)NCc2ccco2)C(=O)CCC(=O)Nc2ccccn2)c1	72.0%
COc1ccc(Oc2ncc3nc(-c4cccc(C#N)c4)c(=O)n(Cc4cccc(OC)c4)c3n2)cc1	-4.8%
CC1(C)Oc2ccc(C(=O)NC3CCCC3)cc2N(CC(=O)NC2CCCCC2)C1=O	23.7%
O=C(/C=C/Nc1ccc(F)cc1)c1ccco1	6.3%
O=C1CCCc2nc(N3CCCCC3)sc21	-6.4%
COCCn1c(=O)[nH]c2cc(C(=O)OC)ccc2c1=O	-10.3%
Cn1c(C(=O)N2COCC2(C)C)cc2c(=O)n3ccccc3nc21	7.5%
CCSc1nnc(NC(=O)Cc2ccc(OC)c(S(=O)(=O)N3CCOCC3)c2)s1	17.2%
CC(C)CC(OC(=O)c1cccs1)C(=O)NCc1cccs1 (centres undefined)	-0.6%
COc1ccc(C(=O)Nc2ccc(-c3ccc(C)o3)cc2)cc1S(=O)(=O)N1CCOCC1	80.0%
COc1ccc(N2CCN(c3nc4c(c(=O)n(C)c(=O)n4C)n3Cc3ccccc3)CC2)cc1	120.4%

Compound	AmpC nodet inh
CCN1C(=O)C=CC1=O	7.5%
CC(=O)c1c(N2CCOCC2)nc(=S)n(Cc2ccccc2)c1C	25.2%
CC1=C(C(=O)NCc2ccccc2)C(c2cccnc2)n2ncnc2N1 (centres undefined)	-10.0%
CCOC(=O)N1CCN(C(=O)c2cnn3c(C)c(Cc4ccc(C)cc4)c(C)nc23)CC1	138.7%
COc1ccccc1OCCSc1nnc(C)n1-c1ccccc1	17.2%
CCN(CC)S(=O)(=O)c1ccc(C(=O)OCC(=O)N2CCN(C(=O)c3ccco3)CC2)cc1	85.0%
CC1(C)C(=O)Nc2ccccc2N1C(=O)COC(=O)C12CC3CC(CC(O)(C3)C1)C2	21.3%
CCCC(=O)Nc1c2c(nn1-c1ccc(C)cc1C)CSC2	7.0%
N#CC1=C(N)N(c2ccccc2)C(c2ccco2)C1(C#N)C#N (centres undefined)	-21.1%
Cc1cnc(CNc2ncncc2-c2ccccc2Cl)cn1	5.5%
O=C(COc1ccccc1)c1cn(CC(=O)N2CCOCC2)c2ccccc12	34.5%
CCCOc1ccc(NC2=CC(=O)CC(C)(C)C2)cc1	19.4%
CCC(C)C(=O)Nc1cc(OC)c(OC)cc1C(=O)O (centres undefined)	1.7%
CC(C)N(C(=O)CSc1nnc(CN2CCCCCC2=O)n1-c1ccccn1)C(C)C	19.5%
CCCCCCc1c(C[C@H](N)C(=O)O)o[nH]c1=O	-2.0%&-5.0%

structure | AmpC nodet inh
O=C(c1cc(-c2ccc3c(c2)OCO3)on1)N1CCN(c2ccc(F)cc2)CC1 | -1.6%
COc1cccc(-c2cc(NCc3cccnc3)ncn2)c1 | 0.5%
CCn1c2ccccc2c2cc(CN3CCN(C(=O)c4ccco4)CC3)ccc21 | 148.4%
NC(N)=Nc1ccc(-c2ccc(N=C(N)N)cc2)cc1 | -1.2%[5.75 µM]
CCOC(=O)c1cc2occc2n1CC(=O)NC1CCCCC1C (centres undefined) | 17.1%
COc1cc(C(=O)N2CCC(NC(=O)C(Cc3ccccc3)NC(C)=O)CC2)cc(OC)c1OC (centres undefined) | 30.1%
COc1cccc(C(=O)Nc2nc(-c3ccc(S(=O)(=O)N4CCOCC4)cc3)cs2)c1 | 33.5%
C=CCSc1nnc(NC(=O)CSc2ccccn2)s1 | -7.2%
COc1ccc(C(=O)NCCn2ccc3ccccc32)cc1 | 8.9%
CCC(C)NC(=O)CCCCCn1c(=O)[nH]c2cc(OC)c(OC)cc2c1=O (centres undefined) | 9.1%
COC(=O)c1ccccc1NC(=O)CSc1ccccn1 | 7.8%
[O-][n+]1onc2c1CCc1nnccc1-2 | 9.9%
O=C(CCCn1c(=O)oc2ccccc21)Nc1cccnc1 | 2.6%
COC(=O)c1oc2ccc(Br)cc2c1NC(=O)c1ccccc1 | -17.7%
COCCn1c(=O)c(-c2ccc(OC)cc2)nc2cnc(Oc3ccccc3)nc21 | 131.4%
CCCN(CC1CC1)c1nc(C)nc(Nc2c(Cl)cc(Cl)cc2Cl)c1Cl | 0.3%&-1.7%
CN(C)C(=O)c1ccc(-c2nccc(NCc3cccnc3)n2)cc1 | -20.1%
COc1ccc(NC(=O)CN(c2ccc(C)cc2)S(C)(=O)=O)c(OC)c1 | 39.9%
NC(=O)Cn1c(S(=O)(=O)Cc2ccccc2)nc2ccccc21 | 3.3%
O=C(c1cccc(S(=O)(=O)NCCOc2ccccc2)c1)N1CCN(c2ncccn2)CC1 | 50.2%
Cc1oc(-c2ccccc2)nc1C(=O)OCC(=O)NC(=O)NCC(C)C | 29.0%
CCSc1nnc(NC(=O)C2CC=CCC2C(=O)O)s1 (centres undefined) | -9.8%
COc1ccc(-c2nc(CS(=O)(=O)CC(=O)Nc3ccc(Cl)cc3)c(C)o2)cc1 | -6.7%
O=C1CC(N2CCC(C(=O)N3CCCCC3)CC2)C(=O)N1 (centres undefined) | -0.7%
NS(=O)(=O)c1cc2c(cc1Cl)N[C@@H](CC1CCCC1)NS2(=O)=O | 3.3%[12.8 µM]

# In another format: 4 of the compounds above.
COCCn1c(=O)c(-c2ccc(OC)cc2)nc2cnc(Oc3ccccc3)nc21
  AmpC nodet inh: 131.4%
CCCN(CC1CC1)c1nc(C)nc(Nc2c(Cl)cc(Cl)cc2Cl)c1Cl
  AmpC nodet inh: 0.3%&-1.7%
CN(C)C(=O)c1ccc(-c2nccc(NCc3cccnc3)n2)cc1
  AmpC nodet inh: -20.1%
COc1ccc(NC(=O)CN(c2ccc(C)cc2)S(C)(=O)=O)c(OC)c1
  AmpC nodet inh: 39.9%

# Further compounds follow:
structure | AmpC nodet inh
COc1ccccc1-n1c(SCC(=O)N2CCCC2)nc2cccnc21 | 16.4%
CCS(=O)(=O)Nc1ccc2c(c1)N(C(C)=O)c1ccccc1CC2 | 21.4%
COc1ccc(CNc2nc3nc(-c4ccccc4)cc(=O)n3[nH]2)cc1OC | -15.8%
CCOC(=O)c1sc(NC(=O)CSc2nc(-c3ccco3)cc(C(F)(F)F)n2)c(C#N)c1C | -10.1%
Cc1nc(SCC(=O)OCc2ccccc2)c2c(=O)n(C)c(=O)n(C)c2n1 | 4.0%
O=C(O)c1cccc(-n2cnnn2)c1 | 5.8%
O=C(CSc1nnc(-c2ccco2)n1Cc1ccccc1)c1ccc(F)cc1 | 40.7%
COCCCNC(=O)Cn1nc(-c2ccc(C)cc2)ccc1=O | 6.7%
O=C(C1CCCCC1)N1CCCC(c2nc3c(nnn3Cc3ccccc3)c(=O)[nH]2)C1 (centres undefined) | 61.9%
CCN(CC)CCCNC(=O)c1nn(-c2ccccc2OC)c(=O)c2ccccc12 | -22.8%
CCC(=O)Nc1cc2c(cc1C(=O)CC)OCCO2 | 4.2%
CC(=O)Nc1nonc1-c1nc2ccccc2n1Cc1nnc(C)o1 | -5.8%
COc1cc2c(cc1NC(=O)CN1C(=O)NC3(CCc4ccccc43)C1=O)oc1ccccc12 (centres undefined) | 51.3%
COc1cccc(N2CCN(Cc3nc(N)nc(Nc4ccccc4OC)n3)CC2)c1 | 82.2%
CCOc1ccc(CC(=O)N2CCN(c3ccc(N4CCOCC4)nn3)CC2)cc1OCC | 85.9%
ClCC1CO1 (centres undefined) | -12.8%
